rRNA inh HTS – reduced GFP signal of wild-type E. coli, primary screen, bacterial rRNA inhibitor project, GFP/RFP fluorescence, OD600, single point; E. coli WT GFP vs humanized-ribosome RFP mutants, 24 h; active compounds read low; DMSO median 0, no signal -100; GFP signal change (wild-type ribosome), % (concentration not given with the values); actives 1.6% (n = 350,000); AID 720706, 2013;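 active means significant combined selectivity score with lowered wild-type GFP, culture density cut under 30%, mutant RFP and density less affected; inactive means any of these conditions unmet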; further: one replicate is shown; some compounds called inactive have numbers as strong as hits
RanGTP-Imp inh – inhibitors of RanGTP-importin-beta interaction, primary screen, biochemical, FRET, CFP-Ran, YFP-importin-beta, homogeneous; inhibition, % (concentration not given with the values); cell-free CFP-Ran/YFP-importin-beta FRET ratio; actives 1.1% (n = 300,000);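 active means most replicates above 15%; inconclusive means exactly half above 15%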;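 further: 0% = DMSO wells and 100% = Ran loaded with GDP instead of GTP; wells of about 40 µL received 100 nL stock; the first replicate is given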
MLL AF4-AF9 inh – inhibitors of AF4 peptide binding to AF9, primary screen, biochemical, AlphaScreen, biotin-AF4 peptide, FLAG-AF9, single point; Protein AF-9 (Homo sapiens), P42568; inhibition, % at 10 µM; actives 0.47% (n = 350,000); AID 651704, 2012;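 active means every replicate reaching a set inhibition limit, whatever the replicate mean, cut at about 25% in these data; inconclusive means mean inhibition reaches that limit but some replicates miss it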;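 further: 0% = plate neutral control median and 100% = total signal loss; the record names both 10 and 1 µM as test concentration; the first replicate is given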
Target sequence (P42568 whole entry, looked up): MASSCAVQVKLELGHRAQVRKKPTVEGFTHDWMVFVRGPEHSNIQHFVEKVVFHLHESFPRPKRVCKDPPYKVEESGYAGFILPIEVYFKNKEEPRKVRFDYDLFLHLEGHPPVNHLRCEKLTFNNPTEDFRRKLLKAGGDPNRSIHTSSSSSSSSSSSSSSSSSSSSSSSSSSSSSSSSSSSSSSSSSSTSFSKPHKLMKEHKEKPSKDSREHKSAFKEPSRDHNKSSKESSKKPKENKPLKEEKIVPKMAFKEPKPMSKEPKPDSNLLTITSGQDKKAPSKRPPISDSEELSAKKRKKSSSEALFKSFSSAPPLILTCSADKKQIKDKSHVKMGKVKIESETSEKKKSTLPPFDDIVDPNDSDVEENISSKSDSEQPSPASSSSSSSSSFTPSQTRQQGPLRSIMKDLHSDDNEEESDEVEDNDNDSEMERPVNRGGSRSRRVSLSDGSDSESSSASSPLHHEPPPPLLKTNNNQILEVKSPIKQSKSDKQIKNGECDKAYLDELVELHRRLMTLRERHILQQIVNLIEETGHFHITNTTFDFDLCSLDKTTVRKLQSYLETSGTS
FGF22 binding – binders of human FGF22 protein, primary screen, FGF22 synaptogenesis inhibitor project, biophysical, thermal shift, single point | Fibroblast growth factor 22 (Homo sapiens), Q9HCT0 | actives 1.5% (n = 340,000) | calls only at 9.99 µM | recombinant FGF22 thermal shift, SYPRO orange fluorescence; percent of sucrose octasulfate shift, DMSO zero | AID 651658, 2012;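 active means melting point raised past a set limit in the mean and every replicate; inconclusive means no clear call; three in four hits are not shown here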
Target sequence (Q9HCT0 whole entry, looked up): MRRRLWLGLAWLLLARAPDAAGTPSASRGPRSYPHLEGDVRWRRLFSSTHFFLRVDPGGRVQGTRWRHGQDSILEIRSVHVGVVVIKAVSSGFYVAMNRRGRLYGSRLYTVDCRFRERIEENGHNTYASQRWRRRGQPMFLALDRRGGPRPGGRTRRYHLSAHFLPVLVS
Calb FLC – C. albicans growth inhibition with fluconazole, primary screen, CaCi-2 strain, Alamar Blue fluorescence. AID 1979, 2009. C. albicans CaCi-2 (fluconazole-resistant clinical isolate) + fluconazole, 48 h. actives 0.57% (n = 300,000). growth inhibition, % (concentration not given with the values);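 active means most replicates above 75%; inconclusive means exactly half above 75%; inactive means most below 75%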;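 further: all wells also contain fluconazole at 8 µg/ml as a sub-toxic cotreatment; 0% = median of DMSO wells and 100% = median of geldanamycin control wells; wells of about 8 µL received 7.5 nL stock; the first replicate is given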
T cruzi repl – inhibitors of intracellular T. cruzi growth, primary screen, luminescence, NIH3T3 host cells. T. cruzi beta-gal in NIH3T3, 90 h. inhibition, % (concentration not given with the values). actives 1.4% (n = 300,000). AID 1885, 2009;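 active means mean inhibition across valid replicates above about 55%, limit read from the data; inconclusive means mean below that limit but half or more replicates reach it; inactive means mean below it, under half of replicates reach it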;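 further: signal also drops with host cell toxicity which is not excluded here; 0% = plate median of DMSO wells and 100% = zero luminescence signal; higher percent means less beta-gal luminescence so fewer parasites; stock transfer was 50 nL into about 50 µL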
Beta apoptosis – inhibitors of cytokine-induced beta cell apoptosis, primary screen, luminescence; INS-1E cytokine-induced death, ATP luminescence, 48 h; percent of positive-control rescue, neutral wells zero; protection from apoptosis, % (no concentration beside the values); actives 0.8% (n = 300,000); AID 435005, 2010;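 active means all replicates at 75% or more, or half of them and the mean; inconclusive means half reach 75% but not the mean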;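 further: 0% = cytokine-treated negative control wells and 100% = positive control rescue; higher means more ATP so stronger rescue from cytokine killing; wells of about 40 µL received 100 nL stock; the first replicate is given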
ALR inh – inhibitors of human ALR sulfhydryl oxidase, primary screen, biochemical, H2O2 detection, HRP-luminol luminescence, single point; FAD-linked sulfhydryl oxidase ALR (Homo sapiens), P55789; actives 3.8% (n = 290,000); purified ALR, DTT oxidation; inhibition, % (test concentration not listed);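 active means mean and each replicate at 75% or more; inconclusive means only one of the two met; inactive means neither met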;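 further: stock transfer was 7.5 nL into about 7.5 µL; 0% = neutral wells and 100% = wells with inactivated enzyme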
Target sequence (P55789 whole entry, looked up): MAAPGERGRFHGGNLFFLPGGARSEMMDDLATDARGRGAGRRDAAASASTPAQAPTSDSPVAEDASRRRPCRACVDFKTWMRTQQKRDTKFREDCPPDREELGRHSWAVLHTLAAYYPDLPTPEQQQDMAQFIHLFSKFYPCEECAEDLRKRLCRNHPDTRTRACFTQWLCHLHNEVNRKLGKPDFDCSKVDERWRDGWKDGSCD
rRNA inh HTS OD600 – second read-out of rRNA inh HTS, no call of its own (marks repeat the call); OD600 change, %; measured here: OD600 growth;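 optical density of the mix in the first replicate; 0 = DMSO median and -100 = no signal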
rRNA inh HTS RFP – further read-out of rRNA inh HTS, marked with its call; RFP signal change, %; measured here: RFP humanized mutant strains;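 first replicate; 0 = DMSO median and -100 = no signal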
Starred values were filed as active, the others as inactive; i = inactive; ? = inconclusive; nt = no result given; & = joins results of further samples. These rows are one share of the data; count on the stated rates, not on these rows.

SMILES | rRNA inh HTS | rRNA inh HTS OD600 | rRNA inh HTS RFP | RanGTP-Imp inh | MLL AF4-AF9 inh | FGF22 binding | Calb FLC | T cruzi repl | Beta apoptosis | ALR inh
COc1ccccc1CNCC(=O)Nc1ccc(C(F)(F)F)cc1 | -1 | -8 | 5.0 | -2.9 | 8.5 | i | 2 | -5 | 0 | -1
COc1ccccc1-c1cn[nH]c1-c1ccc(OCc2ccccc2)cc1O | -48 | -74 | -15 | 4.5 | 10 | i | -1 | 26 | -2 | -2
O=C(c1ccc(F)c(S(=O)(=O)N2CCOCC2)c1)N(c1ccccc1)c1ccccn1 | 4 | 4 | 0.3 | -4.0 | 1.0 | i | 9 | 1 | -1 | -9
CCOC(=O)C1=C(COc2ccc(F)cc2Cl)NC(=O)NC1c1cc(C)ccc1C (stereo not drawn) | nt | nt | nt | 3.8 | nt | nt | -2 | -1 | 17 | 17
CCN(CC)C(=O)CSc1nc(O)c(Cc2ccccc2)c(=O)n1-c1ccccc1C | 6 | 2 | -1.3 | 1.8 | -1.9 | i | -15 | -26 | -5 | 6
CCn1c(SCC(=O)NCc2cccs2)nnc1-c1ccco1 | nt | nt | nt | 0.7 | nt | nt | 4 | 7 | -3 | -4
C=CCOC(=O)C1=C[C@@H](c2ccc(Br)cc2)C[C@@H](OCc2ccc(CO)cc2)O1 | -12 | -13 | -2.9 | 1.7 | 0.4&-3.4 | i | 5 | 3 | -2 | 13
Cc1ccc(NC(=O)c2ccc(Cl)c(NC(=O)c3cccs3)c2)cc1 | -37* | -23* | -7.6* | 0.5 | -0.3 | i | 8 | 14 | nt | 22
COC(=O)/C=C/CC(C)OS(N)(=O)=O (stereo not drawn) | 16 | 7 | -2.0 | 3.8 | -33 | i | -2 | 1 | nt | -1
COc1ccc(CCN2C(=O)C3C4CC(C5C(C(=O)N/N=C\c6ccc(Cl)cc6)=NOC45)C3C2=O)cc1OC (stereo not drawn) | nt | nt | nt | -5.7 | nt | nt | 1 | -19 | -2 | nt
O=C(Nc1ccc(-c2csc(Nc3cccc(C(F)(F)F)c3)n2)cc1)c1cc([N+](=O)[O-])cc(C(F)(F)F)c1 | -1 | 9 | 9.2 | -0.8 | -13 | i | -1 | -13 | 111* | -9
N#C/C(=C\c1cn(Cc2ccccc2)c2ccccc12)C(=O)NCc1ccco1 | nt | nt | nt | -1.5 | -10 | i | 10 | -5 | -14 | -6
CCOc1ccccc1C(=O)NCC(=O)NCc1ccc(S(=O)(=O)N2CCOCC2)cc1 | nt | nt | nt | nt | -1.6 | i | nt | nt | -2 | -3
COc1ccc2c(c1)c(=O)c(C(=O)c1ccccc1)cn2Cc1ccc(C)cc1 | -27 | -24 | 7.0 | 2.1 | 1.2 | i | 15 | 16 | nt | -15
COc1ccc(CCn2c(N)c(S(=O)(=O)c3cccs3)c3nc4ccccc4nc32)cc1OC | -21* | -5.4* | 4.1* | -2.3 | -22 | i | -12 | 3 | 2 | -12
COc1ccc(-n2c(C)c(C)c3c(NCCCO)ncnc32)cc1 | -18 | -16 | -10 | 2.7 | 5.7 | i | -6 | 1 | -3 | -12
COc1cc(OC)cc(C(=O)NCC(=O)N2CCN(Cc3ccccc3)CC2)c1 | 6 | 10 | 0.6 | nt | -4.9 | i | nt | nt | 6 | -1
Cc1cc(Cl)ccc1OCc1nnc2n1CCCCC2 | -12 | -17 | -3.9 | 4.7 | -2.2 | i | 17 | -16 | 1 | 2
Cc1ccc(-c2[nH]c(-c3ccc(C(=O)O)cc3)nc2-c2ccccc2)cc1 | -13 | -9 | 2.4 | -1.3 | 5.9 | i | 1 | -4 | -4 | 99*
COc1ccc(Cl)cc1NC(=O)COC(=O)CNC(=O)c1ccc([N+](=O)[O-])c(C)c1 | nt | nt | nt | -1.7 | nt | nt | 27 | -8 | -2 | -1
Cc1cc(-c2nnc3n2CCCCC3)c(C)n1-c1ccccc1 | 2 | 1 | -3.5 | -5.4 | -16 | i | 0 | 4 | -6 | -4
Cc1ccccc1NC(=O)Nc1ccc2c(c1)OCO2 | 8 | 7 | -0.9 | 0.4 | 0.2 | i | 0 | 19 | 5 | -5
COc1ccc(OC)c(-c2csc(-c3cccs3)n2)c1 | -6 | -34 | -5.9 | 2.7 | 7.8 | i | 5 | 4 | 8 | -7
CCCn1c(=O)c(C(=O)Nc2ccccc2C)c(O)c2ccccc21 | 7 | 4 | 0.4 | 2.0 | 3.4 | i | -6 | -9 | nt | -1
CC(OC(=O)c1cc[n+]([O-])cc1)C(=O)Nc1ccc(C(N)=O)cc1 (stereo not drawn) | 6 | -1 | 0.0 | nt | -2.4 | i | nt | nt | 4 | -5
c1nc(N2CCN(Cc3ccc4c(c3)OCO4)CC2)c2[nH]cnc2n1 | 4 | 4 | 1.4 | 1.0 | 0.3 | i | 3 | -3 | -2 | 1
CC(C)N(C(=O)C(F)(F)F)C(C(=O)NC1CCCCC1)c1ccncc1 (stereo not drawn) | nt | nt | nt | 2.0 | nt | nt | -25 | 4 | -3 | -10
CCCCN(C(=O)c1ccc(S(=O)(=O)N2CCCC2)cc1)C1CCS(=O)(=O)C1 (stereo not drawn) | 0 | 6 | -1.7 | -1.8 | -11 | nt | 2 | -3 | -3 | -7
O=C(CN1C(=O)c2ccccc2C1=O)Nc1ccc(N2CCOCC2)cc1 | 5 | 17 | -1.2 | -3.6 | nt | nt | 6 | -1 | 0 | -7
CCOCCCNC(=O)C1CCN(C(=O)Nc2ccc(C)cc2)CC1 | 17 | 13 | 0.2 | 0.8 | nt | nt | -17 | 0 | 4 | -6

Reprinted at random: six entries already listed, in no set order.
SMILES | rRNA inh HTS | rRNA inh HTS OD600 | rRNA inh HTS RFP | RanGTP-Imp inh | MLL AF4-AF9 inh | FGF22 binding | Calb FLC | T cruzi repl | Beta apoptosis | ALR inh
Cc1ccccc1NC(=O)Nc1ccc2c(c1)OCO2 | 8 | 7 | -0.9 | 0.4 | 0.2 | i | 0 | 19 | 5 | -5
CCCCN(C(=O)c1ccc(S(=O)(=O)N2CCCC2)cc1)C1CCS(=O)(=O)C1 (stereo not drawn) | 0 | 6 | -1.7 | -1.8 | -11 | nt | 2 | -3 | -3 | -7
O=C(CN1C(=O)c2ccccc2C1=O)Nc1ccc(N2CCOCC2)cc1 | 5 | 17 | -1.2 | -3.6 | nt | nt | 6 | -1 | 0 | -7
CC(OC(=O)c1cc[n+]([O-])cc1)C(=O)Nc1ccc(C(N)=O)cc1 (stereo not drawn) | 6 | -1 | 0.0 | nt | -2.4 | i | nt | nt | 4 | -5
c1nc(N2CCN(Cc3ccc4c(c3)OCO4)CC2)c2[nH]cnc2n1 | 4 | 4 | 1.4 | 1.0 | 0.3 | i | 3 | -3 | -2 | 1
CC(C)N(C(=O)C(F)(F)F)C(C(=O)NC1CCCCC1)c1ccncc1 (stereo not drawn) | nt | nt | nt | 2.0 | nt | nt | -25 | 4 | -3 | -10

(listing goes on)
SMILES | rRNA inh HTS | rRNA inh HTS OD600 | rRNA inh HTS RFP | RanGTP-Imp inh | MLL AF4-AF9 inh | FGF22 binding | Calb FLC | T cruzi repl | Beta apoptosis | ALR inh
O=C(Nc1cccc(Cl)c1N1CCCC1)c1ccc([N+](=O)[O-])o1 | 1 | -3 | -2.6 | nt | 3.7 | i | 7 | nt | 2 | -81
CCN(CC)S(=O)(=O)c1ccc(N2CCCC2)c(NC(=O)C2=COCCO2)c1 | 1 | 8 | 0.8 | ? | -1.2 | i | nt | 18 | -6 | -4
CCOC(=O)CSc1nnc(COc2cccc(C)c2)o1 | 5 | -2 | -1.5 | 5.1 | -2.6 | i | 20 | -13 | 0 | 0
CCOC(=O)N1N=C(c2ccccc2)CC1(O)C(F)(F)F (stereo not drawn) | nt | nt | nt | -0.5 | nt | nt | 2 | -9 | 3 | -8
CCCN1C(=O)/C(=C/c2cc(C)n(C)c2C)SC1=Nc1ccc(OC)cc1 | nt | nt | nt | -2.0 | nt | nt | 0 | 29 | 5 | 2
CN1CCN(C(=O)c2ccc3ccccc3c2)CC1 | nt | nt | nt | 3.9 | nt | nt | -8 | 6 | 4 | -23
CC1=C(C(=O)N2CCN(c3cc(C)ccc3C)CC2)C2(CCCCC2)OC1=O | 9 | -3 | 7.3 | 0.8 | -3.9 | i | -4 | 2 | -3 | 87*
CCn1cc(/C=C(\NC(=O)c2ccc(OC)cc2)C(=O)N2CCOCC2)c2ccccc21 | -2 | -8 | 1.4 | 5.4 | 2.7 | i | 8 | -7 | -11 | 35
CCNc1cc(N2CCOCC2)nc(SC)n1 | 3 | 8 | -0.1 | 0.4 | -3.5 | i | -7 | 2 | 1 | 1
COc1ccc(N(CC(=O)Nc2ccccc2C(N)=O)S(=O)(=O)c2ccc(C)c([N+](=O)[O-])c2)cc1 | -9 | -15 | -5.0 | -0.3 | 3.2 | i | 95* | 0 | -4 | nt
CCOc1cc(Cl)c(S(=O)(=O)NCc2ccccn2)cc1Cl | nt | nt | nt | -3.6 | nt | nt | 6 | 11 | 13 | -6
O=C(O)CCc1nn2cc(-c3ccccc3)nc2[nH]c1=O | nt | nt | nt | -3.5 | nt | nt | -7 | -5 | 5 | 10
O=[N+]([O-])c1ccc(O)c(/C=N/Nc2ncnc3c2cnn3-c2ccccc2)c1 | 8 | 13 | 2.5 | 5.6 | 9.3 | i | 37 | -8 | 16 | -9
Cc1nnc(NC(=O)CSc2ncn(-c3ccccc3)n2)s1 | 7 | 0 | 0.1 | nt | -1.8 | i | 0 | 0 | -2 | 0
Cc1ccc(S(=O)(=O)n2c3ccc(F)cc3c3nc(C)sc32)cc1 | nt | nt | nt | -0.6 | nt | nt | 8 | 6 | -2 | 11
Cc1c(C(=O)N(Cc2ccccc2)C(C)C)oc2ccc(S(=O)(=O)N3CCOCC3)cc12 | 1 | -19 | 14 | -1.2 | 4.5 | i | -2 | 11 | 90* | nt
Cc1ccc(C(=O)NCC(c2ccco2)N2CCOCC2)cc1 (stereo not drawn) | 1 | 4 | 0.0 | -2.1 | -3.9 | i | 4 | -9 | -1 | -9
Cc1ccc(-c2nnc3n2N=C(c2ccccc2)CS3)cc1 | -5 | 5 | -3.0 | ? | -0.8 | i | 14 | 20 | 5 | -9
CCn1cc(/C=C/c2cc[n+](C)cc2)c2ccccc21 | 110 | -13 | 68 | -385 | -1.7 | i | 94* | 55* | 85* | nt
Cn1c(=O)c2c(nc(NCc3ccccc3)n2CCCc2ccccc2)n(C)c1=O | nt | nt | nt | 2.8 | nt | nt | -1 | -17 | -6 | 15
Cc1cccc(C(=O)N[C@@H]2c3ccccc3C[C@@H]2O)n1 | 7 | 12 | 0.3 | -3.4 | -3.0 | i | -9 | 11 | nt | 2

Bioassay records as filed in PubChem BioAssay.
